# AF4-AF9 inh: inhibitors of human MLL-AF4/AF9 interaction; P42568; AlphaScreen, biotin-AF4 peptide binding to FLAG-AF9; inhibition, % at 10 µM; 350,000 tested, 0.47% active;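 active means every replicate reaching a set inhibition limit, whatever the replicate mean, cut at about 25% in these data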;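 further: 0% = plate neutral control median and 100% = total signal loss; the record names both 10 and 1 µM as test concentration; the first replicate is given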
# Target sequence (P42568 whole entry, looked up): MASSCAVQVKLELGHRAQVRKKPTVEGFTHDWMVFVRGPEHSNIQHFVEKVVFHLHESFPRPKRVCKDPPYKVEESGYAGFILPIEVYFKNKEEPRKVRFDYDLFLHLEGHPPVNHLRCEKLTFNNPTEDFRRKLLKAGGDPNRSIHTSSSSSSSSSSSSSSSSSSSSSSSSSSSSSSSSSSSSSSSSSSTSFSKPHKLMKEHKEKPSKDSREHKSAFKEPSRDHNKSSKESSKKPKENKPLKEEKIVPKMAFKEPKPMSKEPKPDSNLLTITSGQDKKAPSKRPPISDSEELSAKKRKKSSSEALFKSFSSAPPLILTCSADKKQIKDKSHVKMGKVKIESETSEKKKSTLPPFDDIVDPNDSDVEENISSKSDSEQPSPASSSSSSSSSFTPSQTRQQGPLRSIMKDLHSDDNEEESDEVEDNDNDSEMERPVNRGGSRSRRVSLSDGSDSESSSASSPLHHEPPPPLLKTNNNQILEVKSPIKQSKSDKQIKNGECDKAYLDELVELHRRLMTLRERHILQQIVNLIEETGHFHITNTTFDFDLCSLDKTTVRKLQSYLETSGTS
# Vif TR-FRET: inhibitors of Vif binding to APOBEC3G peptide, primary screen, biochemical, TR-FRET, GST-Vif 1-94, biotin-A3G peptide, dose response retest (AID 1117319); TR-FRET GST-Vif / biotin-A3G peptide binding; higher % means a stronger effect; test concentration not given here; strong numbers were not always called active; inhibition, %, or IC50 in µM where a hit was titrated; 260,000 tested, 0.57% active;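 active means above the screen mean plus three standard deviations and confirmed in dose response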;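 further: Vif residues 1-94 fused to GST binding biotinylated APOBEC3G peptide 110-148; 0% = full assay without inhibitor and 100% = GST in place of GST-Vif; retest series ran down from 100 µM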
# * marks the source's active call; other numbers are inactive results; & = joins results of further samples.
SMILES,AF4-AF9 inh,Vif TR-FRET
Cc1ccc(S(=O)(=O)N2CCC(C(=O)N3CCc4ccccc43)CC2)cc1C,-12.9,-2.8%
COc1ccccc1CC(O)CC1c2c(cc3c(c2OC)OCO3)CCN1C (centres undefined),4.1,-0.5%
CCCCCCN1C[C@H](O)[C@@H](n2cc(-c3ccc(F)cc3)nn2)C[C@@H]1c1ccccc1,-2.6,9.8%
Cc1cccc(C)c1NC(=O)CNC(=O)CNC(=O)c1ccc2ccccc2c1,0.3,-1.9%
CN(CCCn1cnc2c(OCc3ccccc3)ncnc21)Cc1ccco1,-5.0,0.7%
O=C1NCCOC(=O)[C@H](Cc2ccc(F)cc2)C/C=C\C[C@H]1CC(=O)N(CCO)Cc1ccccc1,1.1,0.9%
Cc1ccc(NC(=O)Nc2nc3ccc(S(C)(=O)=O)cc3s2)cc1,0.8,-5.1%
COc1ccc(-c2c(N)cnc(C(=O)O)c2C)c(OCc2ccccc2)c1OC,-2.6,2.5%
COc1cc2nnn(-c3ccncc3)c2cc1OC,0.4,0.3%
CCCCN1C(=O)C(CC(=O)NCCCN(C)C)CC(C(=O)N(C)C)=C1C (centres undefined),0.9,-2.4%
C[C@H](CO)N1C[C@H](C)[C@H](CN(C)C(=O)c2ccc3ccn(C)c3c2)OCc2cnnn2CCCC1=O,-2.4&-0.9,-1.8%
O=[N+]([O-])c1ccccc1Nc1ccccc1[N+](=O)[O-],-0.9,-5.5%
CCN(CC)C(=O)C1=C(C)N(Cc2ccccc2)C(=O)C(CC(=O)NC2CC2)C1 (centres undefined),-9.6,0.1%
O=C(COC(=O)c1ccco1)Nc1ccc(N2CCOCC2)cc1,-5.9,8.2%
CN1OC[C@@H]2CN(C(=O)CCc3ccccc3)[C@H](c3cccc(N4CCOCC4)c3)C[C@@H]21,0.3,4.7%
CC(C)(C)OC(=O)C[C@H]1C/C=C\C[C@@H](CC(=O)NCCO)C(=O)N[C@H](Cc2ccccc2)COC1=O,1.4,0.9%
C[C@@H]1COC(=O)CCC/C=C\C[C@@H](CC(=O)N(CCO)Cc2ccccc2)C(=O)N1,-5.7,3.5%
CCN(C(=O)COC(=O)c1ccc2ccccc2n1)c1c(N)n(Cc2ccccc2)c(=O)[nH]c1=O,-1.2,-2.1%
O=C(NCCCCc1ccccc1)c1cccc(NC(=O)c2ccccc2)c1,-1.4,3.1%
C[C@H](NC(=O)c1nc[nH]c1C(=O)NC[C@@H](C)O)c1ccccc1,0.6,3.5%

# As a working copy, part of the list above.
SMILES,AF4-AF9 inh,Vif TR-FRET
Cc1ccc(S(=O)(=O)N2CCC(C(=O)N3CCc4ccccc43)CC2)cc1C,-12.9,-2.8%
COc1ccccc1CC(O)CC1c2c(cc3c(c2OC)OCO3)CCN1C (centres undefined),4.1,-0.5%

# Quoted at random: 6 entries already listed
SMILES,AF4-AF9 inh,Vif TR-FRET
O=[N+]([O-])c1ccccc1Nc1ccccc1[N+](=O)[O-],-0.9,-5.5%
CCCCCCN1C[C@H](O)[C@@H](n2cc(-c3ccc(F)cc3)nn2)C[C@@H]1c1ccccc1,-2.6,9.8%
COc1cc2nnn(-c3ccncc3)c2cc1OC,0.4,0.3%
Cc1ccc(NC(=O)Nc2nc3ccc(S(C)(=O)=O)cc3s2)cc1,0.8,-5.1%
Cc1ccc(S(=O)(=O)N2CCC(C(=O)N3CCc4ccccc43)CC2)cc1C,-12.9,-2.8%
C[C@@H]1COC(=O)CCC/C=C\C[C@@H](CC(=O)N(CCO)Cc2ccccc2)C(=O)N1,-5.7,3.5%

# Continuation:
SMILES,AF4-AF9 inh,Vif TR-FRET
O=C(CCc1c[nH]c2ccccc12)N1CCN(S(=O)(=O)c2ccc(F)cc2)CC1,-1.6,0.3%
O=C(O)C1CCc2nc(NCc3ccccc3)nc(NCc3ccccc3)c2C1 (centres undefined),0.2,6.2%
O=C(Nc1ccc(C(=O)N2CCCC2)cc1)c1cc(F)c(F)cc1Cl,-0.2,-1.0%
COC(=O)C1(Cc2ccc3c(c2)CCC3)Cc2ccc3c(c2C1=O)CCC3 (centres undefined),-7.6,-2.3%
COc1ccc(C(CNC(=O)CSc2ccccc2)N2CCOCC2)cc1 (centres undefined),-1.9,-8.2%
CCOc1ccc(S(=O)(=O)N2CCN(C(=O)c3oc4ccc(OC)cc4c3C)CC2)cc1,-2.1,-0.4%
COCCN(C(=O)CSc1nnc(-c2ccc(F)cc2)n1N)c1c(N)n(CC(C)C)c(=O)[nH]c1=O,-2.1,-10.9%
O=C1[C@H]2[C@@H](c3ccccc3)N[C@]3(CCCN(Cc4ccco4)C3=O)[C@H]2C(=O)N1Cc1ccccc1,0.6,-2.5%
O=C(CCC(C(=O)O)N1C(=O)c2ccccc2C1=O)Nc1ccccc1 (centres undefined),-3.9,-3.4%
Cc1cc(C)n2[nH]c(=O)cc2n1,-2.1,-0.9%
CN1OC[C@@H]2CN(S(=O)(=O)c3cccc4ccccc34)[C@H](c3ccc(-c4cccnc4)cc3)C[C@@H]21,-0.3,3.1%
CN(C)C(CNC(=O)C1CCN(S(=O)(=O)c2ccccc2C(F)(F)F)CC1)Cc1ccccc1 (centres undefined),3.7,3.7%
CN1CC(COCc2ccccc2)Oc2ccccc2S1(=O)=O (centres undefined),-0.7,-0.4%
CCN(CC)C(=O)C1=C(C)N(CCC2=CCCCC2)C(=O)C(CC(=O)NCCCCc2ccccc2)C1 (centres undefined),1.4,-1.5%
CCN(CC)S(=O)(=O)c1ccc(N2CCCC2)c(NC(=O)CSCc2c(C)noc2C)c1,-9.6,2.0%
C=CCN1c2ccccc2Sc2cnccc21,-2.1,1.1%
Cc1ccc(S(=O)(=O)N2C[C@@H](C)[C@]3(C2)[C@H](O)[C@H](OC(=O)Nc2c(C)noc2C)C[C@H]2C(=O)N(c4ccccc4)C(=O)[C@H]23)cc1,-2.1,-6.4%
C[C@H]1CN([C@@H](C)CO)C(=O)c2cc(-c3ccccc3F)cnc2O[C@H]1CN(C)C(=O)C1CCOCC1,-2.5&-1.7&-2.1,0.7%
CC(=O)C1CCC2C3CCC4=CC(=O)CCC4(C)C3(F)C(O)CC12C (centres undefined),-1.1,12.2%
CC(NC(=O)c1ccccc1Cl)C(=O)NCc1cccs1 (centres undefined),-13.3,4.6%
C[C@@H]1C(=O)N(c2ccccc2)[C@@H]1c1ccncc1,-1.9,-4.1%
Cc1ccc2c(CN3CCN(S(=O)(=O)c4ccc(Cl)cc4)CC3)cc(=O)oc2c1C,1.1,-9.0%
CC(C)(C)CCN1CCC(CN2CCNC2=S)CC1,-1.2,-0.1%
c1ccc(N2CC3COc4ccccc4C3=N2)cc1 (centres undefined),-20.0,2.7%
COCC(=O)N(C)[C@H]1C[C@H]2c3[nH]c4ccccc4c3CCN2C(=O)[C@H]1[C@H](C)O,-3.0,-2.6%
O=c1c(Br)c(Br)cnn1-c1ccccc1,0.5,-142.0%
O=C1c2ccccc2[C@@H]2C[C@@H](O)[C@H](Nc3cccc4ccccc34)CCN12,0.1,8.8%
COC(=O)C1(C)NC(c2cccc(C)c2)C2C(=O)N(c3ccccc3)C(=O)C21 (centres undefined),-3.0,-0.9%
S=c1[nH]nc2sc3ccccc3n12,-6.1,-1.4%
O=C1NCCCN1C1OC(CO)C(O)C1O (centres undefined),-16.2,0.4%
O=S1(=O)CSCS(=O)(=O)C1,-4.7,0.8%
Cc1ccc(S(=O)(=O)Oc2cccc([N+](=O)[O-])c2)cc1,1.6,18.4%
Cc1ccccc1Oc1ccc2c(c1)[C@@H]1C[C@H](N(C)C(=O)c3cccnc3)[C@H]([C@H](C)O)C(=O)N1CC2,2.8,1.3%
CC1(C)OC2OC(C3COC(=O)O3)C(OC(=O)c3ccccc3)C2O1 (centres undefined),-3.0,-6.4%
CCCCCCCCCCCCCCCC[N+](C)(C)CCl,1.7,7.4%
CC1C(C)N(C(=O)CCl)c2ccccc2N1C(=O)CCl (centres undefined),4.9,-9.4%
Cn1c(=O)[nH]c2c(c1=O)CCO2,1.4,-5.7%
C[C@H](CO)N1C[C@H](C)[C@H](CN(C)Cc2ccncc2)OCc2ccccc2-c2c(n(C)c3ccccc23)C1=O,-0.1&1.9,1.6%
CCN1CCN(c2ccc(NC(=O)c3ccc4c(c3)OCCO4)cc2C)CC1,-11.9,1.1%
COc1ccc(CC(=O)Nc2cc(S(=O)(=O)N3CCCCC3)ccc2OC(C)C)cc1OC,-1.8,1.9%
COc1cc(OC)c2c(c1)OC(=O)CC2c1ccc2c(c1)OCO2 (centres undefined),-0.1,2.7%
COc1ccc(C(=O)OCC(=O)Nc2ccc3c(c2)OCO3)cc1S(=O)(=O)N1CCOCC1,7.4,0.3%
CCOC(=O)C1(CCOC)CCCCC1=O (centres undefined),-2.6,-8.4%
Cc1noc(C)c1S(=O)(=O)Nc1ccc2c(c1)C(=O)N([C@@H](C)CO)C[C@@H](C)[C@@H](CN(C)CC1CCCCC1)OCCCC[C@@H](C)O2,4.0&5.1,2.3%
O=C(OCc1nnc(-c2ccccc2)o1)C1CCN(C(=O)c2ccc(Cl)cc2)CC1,-0.5,-7.8%
C[C@@H]1CN([C@@H](C)CO)C(=O)c2cc(Br)cnc2O[C@@H]1CN(C)C(=O)Nc1ccc(F)cc1,-1.3&-0.8&-2.6,-2.7%
COCCCNC(=S)NCCNc1nc2c(C)c(C)ccc2cc1C#N,-1.3,20.9%
COc1ccc(C=NN=C2c3ccccc3-c3ccccc32)cc1OC,-0.5,-9.7%
COc1ccc(N=Cc2ccccc2O)cc1,4.0,0.1%
COc1ccc(C(=O)C2CCCN(C(=O)c3csc(SC)n3)C2)cc1F (centres undefined),1.0,2.2%
Cc1cc(C)c(NC(=O)CN(C)C(=O)C2CC(=O)N(c3cccc4ccccc34)C2)c(C)c1 (centres undefined),-3.9,-6.6%
C=CCN1C(=O)[C@H]2CCC=C[C@H]2[C@@H]1c1cccc(C)c1,-0.1,13.3%
Oc1ccccc1C=NNC(=S)NC1CC2C=CC1C2 (centres undefined),16.3,1.1%
CC(C)C[C@@H](CNCC(=O)[C@H](C)NC(=O)c1[nH]cnc1C(=O)N[C@@H](C)CN)NC(=O)c1nc[nH]c1C(=O)N[C@@H](CO)C(=O)O,4.2,1.8%
C=CCC[C@@H](Cc1ccc(F)cc1)C(=O)OC[C@@H](Cc1c[nH]c2ccccc12)NC(=O)[C@@H](CC=C)CC(=O)NCCO,1.3,0.1%
S=c1c2[nH]cnc2ncn1CCSc1ncnc2nc[nH]c12,-5.9,0.9%
COc1ccccc1N1CCN(C(=O)c2ccccc2SCC(=O)NCc2ccco2)CC1,0.6,2.8%
S=C(c1ccco1)N1CCOCC1,-3.1,0.5%
OC(CN(Cc1ccccc1)Cc1ccccc1)c1ccccc1 (centres undefined),2.3,-7.2%
CCc1cc(C(=O)NCC(c2ccc(OC)cc2)N2CCOCC2)sc1C (centres undefined),-5.8,3.5%

# Additional records
SMILES,AF4-AF9 inh,Vif TR-FRET
COc1ccc([C@H]2N[C@]3(CCCN(Cc4ccc(C(F)(F)F)cc4)C3=O)[C@H]3C(=O)N(C)C(=O)[C@@H]23)cc1,0.9,1.4%
CN(C)CCCNC(=O)C[C@H]1C[C@H](C(=O)N2CCOCC2)[C@@]2(C)c3[nH]c4ccc(Cl)cc4c3CCN2C1=O,4.4,-0.5%
CN(C(=O)c1cccc(NC(=O)Cc2cccc(NC(=O)C3CCCN(C(=O)CCc4ccccc4)C3)c2)c1)C1CCC1 (centres undefined),2.4,6.6%
COc1ccc(-c2csc(NC(=O)c3c(C)noc3C)n2)cc1F,-0.3,-1.6%
CN(C)CCOc1ccc2c(c1)C(=O)C(=Cc1ncc([N+](=O)[O-])n1C)C2,0.6,7.0%
CCCCCC(=O)N1C[C@H](O)[C@@H](n2cc(-c3ccc(F)cc3)nn2)C[C@@H]1c1ccc(OC)cc1,-1.6,-3.8%
O=C(C1CC=CCC1)N1CCCCCC1 (centres undefined),1.4,0.5%
O=C(NCc1ccncc1)C(=O)NCC1OCCN1S(=O)(=O)c1ccccc1 (centres undefined),-2.8,-5.0%
CC(NC(=O)CN1C(=O)NC2(CCCC2)C1=O)c1ccc2ccccc2c1 (centres undefined),0.8,-8.8%
COc1ccc(CNC(=O)c2ccc(Cl)c(S(=O)(=O)N3CCCCCC3)c2)cc1,-1.0,-3.5%
Cn1c(=O)c2nc(SCc3ccccc3)n(C)c2n(C)c1=O,-8.8,6.7%
COc1ccc(CCC(=O)N2CCN(S(=O)(=O)c3cccs3)CC2)cc1,0.6,-9.3%
O=P(NC1CCCCC1)(c1ccccc1)c1ccccc1,1.2,-2.2%
CC1CC(NC(=S)N(C)C)CC(C)(C)C1 (centres undefined),-1.8,3.4%
C[C@@H]1CN([C@H](C)CO)C(=O)CCCn2nncc2CO[C@H]1CN(C)Cc1ccc2cccnc2c1,-2.2&1.0,7.3%
C[C@H]1CN([C@@H](C)CO)C(=O)c2cc(C#CC3CCCC3)cnc2O[C@H]1CN(C)C(=O)Cc1ccccn1,2.4&-5.5&-3.3,10.8%
CCN(CC)C(=O)C1=C(C)N(CCCOC)C(=O)C(CC(=O)NCCc2ccccn2)C1 (centres undefined),0.0,7.1%
Nc1ccc(Cc2ccc(N)c(O)c2)cc1O,-1.6,0.2%
O=C(Nc1ccn(CCCN(CCCn2ccc(NC(=O)OCc3ccccc3)nc2=O)CCc2cc3ccccc3[nH]2)c(=O)n1)OCc1ccccc1,3.3,-4.4%
COc1ccccc1C(=Cc1ccc([N+](=O)[O-])cc1)C(=O)O,-1.2,0.9%
O=C(O)CN1C(=O)/C(=C\c2ccccc2OCc2ccccc2)SC1=S,-4.4,3.9%
CN(C)S(=O)(=O)c1ccc(C(=O)Nc2nnc(SCC(=O)N3CCOCC3)s2)cc1,0.5,3.3%
CC(C)N(Cc1nccn1C)C(=O)C1CCC(=O)N(CCc2ccccc2)C1 (centres undefined),1.5,-3.1%

# The list is partial. The share of hits here may be higher or lower than overall.
